VACV mCherry inh: inhibitors of vaccinia virus infection (mCherry reporter signal); Vaccinia virus mCherry reporter infection, fluorescence; about a quarter of the inactives have no number; Potency, µM (doses to about 36.5 µM), for the others: top-dose activity change, negative = inhibition, actives largely listed as inhibitors; actives 0.63% (n = 310,000); active = well fitted inhibition curve with a large enough effect; inconclusive = small, poorly fitted or top-dose-only effect; inactive = no such curve, though single readings can be large or run the other way; tested in A549 cells; note: nearly all actives have a fitted effect of over 35% in size; inactives centre near -10
Vaccinia Venus: vaccinia inhibition (Venus reporter); Vaccinia virus Venus reporter expression, fluorescence; Potency, µM (doses to about 36.5 µM), for the others: top-dose activity change, negative = inhibition, most hits filed as inhibitors; actives 0.46% (n = 330,000); AID 720580; active means well fitted inhibition curve with a large enough effect; inconclusive means small, poorly fitted or top-dose-only effect; inactive means no such curve, though single readings can be large or run the other way; tested in A549 cells; note: nearly all actives have a fitted effect of over 30% in size; inactives centre near -10
Active calls of the source: *; i = inactive; ? = inconclusive; . = not tested or not shown; [ ] = remark or other dose. % is set by controls: 0 for no effect and ±100 for the full control effect; potency is the fitted concentration of half-maximal effect.

SMILES	VACV mCherry inh	Vaccinia Venus
CCN1CCN(c2nc3c(c(=O)[nH]c(=O)n3C)n2CCCc2ccccc2)CC1	-14%	-11%
Cn1ccnc1C(=O)c1ccccc1Cl	0%	5%
O=C(NCCSc1c(-c2ccc(Cl)cc2)[nH]c2ccccc12)c1ccc(S(=O)(=O)N2CCOCC2)cc1	-1%	-22%
CC(C)C(=O)N1c2ncnn2C2(CCCCC2)[C@@H]2CCCC[C@@H]21	-15%	-11%
Cc1cccc(NC(=O)Cn2cc(S(=O)(=O)Cc3ccccc3Cl)c3ccccc32)c1	-9%	-11%
O=C1Nc2ccccc2C1(O)Cc1ccncc1 (centres undefined)	.	-2%
C[C@@]12C=CC(=O)C=C1CCC1C2CC[C@]2(C)C(=O)CCC12 (some centres undefined)	-1%	6%
CS(=O)(=O)c1ccc2nc(NC(=O)c3ccccc3)sc2c1	-30%	-24%
O=C(C1CCCCC1)N1CCN=C1SCc1cccc([N+](=O)[O-])c1	-12%	-23%
Cc1cc(NC(=O)c2cc(-c3ccc(C)s3)nc3ccccc23)no1	i	-2%
CN(C)c1ccc(/C=C/c2c(Cl)cnc3ccccc23)cc1	-11%	-15%
COc1cc(C2CC(=O)c3c([nH]c(C(=O)OCCOC(C)C)c3C)C2)cc(OC)c1OC (centres undefined)	-28%	-25%
CCOC(=O)c1sc(N(Cc2ccccc2)C(=O)CSc2ncn[nH]2)nc1C	.	-4%
O=S(=O)(c1ccc(=S)[nH]c1)N1CCOCC1	i	-8%
CCC(=O)N/N=C(\C)CC(=O)Nc1ccccc1-c1ccccc1	i	4%

Reformatted with bars between the fields: entries from further up
Compound | VACV mCherry inh | Vaccinia Venus
CC(C)C(=O)N1c2ncnn2C2(CCCCC2)[C@@H]2CCCC[C@@H]21 | -15% | -11%
Cc1cc(NC(=O)c2cc(-c3ccc(C)s3)nc3ccccc23)no1 | i | -2%

Additional results follow:
SMILES	VACV mCherry inh	Vaccinia Venus
CN(C(=O)c1cccc(NC(=O)Cc2cccc([N+](=O)[O-])c2)c1)C1CCCCC1	10µM*	?
CCOc1ccccc1NC(=O)CSC1=NN2CCCC(=O)N=C2S1	-11%	-9%
COc1ccc(/C=N\NC(=O)c2ccccc2)cc1COc1ccccc1	-22%	-23%
COc1ccc(S(=O)(=O)NCC(c2ccc(C)cc2)N2CCN(C)CC2)cc1 (centres undefined)	-7%	-22%
CCCNC(=O)CS(=O)(=O)Cc1nc(-c2cccc(OC)c2)oc1C	i	-18%
Cn1c(-c2ccccc2)c[n+]2c1-c1ccccc1C2	?	-18%
CC(C)(C)c1ccc(/C=C/C(=O)N2CCN(c3ncccn3)CC2)cc1	-26%	-24%
COc1ccc(-n2c(=O)c3c4c(sc3n(Cc3cc(=O)n5c(C)cccc5n3)c2=O)CCC4)c(OC)c1	-25%	-25%
COc1ccc(-n2nc(C(=O)NCC(=O)N3CCN(c4ccc(F)cc4)CC3)c3ccccc3c2=O)c(OC)c1	i	-11%
CCC(=O)N1c2ccccc2CC1C(=O)NCCc1ccccc1 (centres undefined)	-9%	2%
COc1cc(OC)c(OC)cc1/C=C1\Oc2cc(OCC(=O)N3Cc4ccccc4C[C@H]3C(=O)O)ccc2C1=O	45%[activator]	44%[activator]
Cc1ccc(NC(=O)c2cccnc2)cc1C	-12%	-7%
Cc1c(Cc2ccc3c(c2)OCO3)sc(NC(=O)C(C)(C)C)c1C#N	-16%	-22%
CCC1(CCC(C)C)C(=O)NC(=O)N(c2ccccc2)C1=O (centres undefined)	0%	-4%
O=C(CSc1nc2ccccc2c(=O)n1-c1ccccc1)N1CCc2ccccc21	-16%	-11%
O=S(=O)(c1cccc(NC(=S)Nc2ccc(Br)cc2Cl)c1)N1CCOCC1	.	-12%
COc1cc(OC)cc(N(C(=O)C2COc3ccccc3O2)C(C(=O)NC2CCCCC2)c2ccc(O)cc2)c1 (centres undefined)	?	?
CN(C(=O)Cc1c(C(=O)O)n(C)c2ccccc12)c1cccc(C(F)(F)F)c1	-21%	-4%
CC(C)(C)OC(=O)N(Cc1ccco1)S(=O)(=O)c1ccccc1Br	-17%	-3%
Cc1cccc(N2CCN(C(=O)c3cnn(-c4cccc(Cl)c4C)c3C3CCNCC3)CC2)c1C	?	?
O=C(Nc1ccc(F)cc1F)c1ccc2c(O)c(S(=O)(=O)c3ccc(Cl)cc3)c(=O)[nH]c2c1	-8%	-8%
Cc1c(NC(=S)NC(=O)c2ccco2)c(=O)n(-c2ccccc2)n1C	-4%	-3%
CCN(CC(=O)NC1CCS(=O)(=O)C1)S(=O)(=O)c1ccc(C)cc1C (centres undefined)	-17%	2%
Cc1ccccc1N(CC(=O)N/N=C/c1ccc(F)cc1)C(=O)c1ccccc1	-25%	-27%
O=c1oc2c(CN3CCCCC3)c(O)ccc2cc1-c1nc2ccccc2[nH]1	-14%	-7%
COC(=O)c1ccc(NC(=O)c2ccc(C)cc2)o1	.	0%
COc1ccc(/C=C/c2ccccn2)cc1OC	22%	-16%
COc1ccc(Cn2c(-c3ccc(Cl)cc3)c[n+]3ccccc23)cc1	i	-8%
Cc1cccc(CNc2cc(-c3cccc(C#N)c3)ncn2)c1	12%	15%
Cc1ccc(NC(=S)NNC(=O)CSc2nc3ccccc3c(=O)n2-c2ccc(C)cc2)cc1	-20%	-19%
CCC(C)c1ccc(OCC(=O)Nc2cccc(-c3nc4ncccc4o3)c2)cc1 (centres undefined)	i	-5%
Cc1ccc2nc(-c3ccccc3)cn2c1	i	0%
Cc1noc(C)c1NC(=O)Nc1ccc2c(c1)C(=O)N([C@H](C)CO)C[C@H](C)[C@@H](CN(C)S(=O)(=O)c1cn(C)cn1)O2	-14%	0%
CN1CCC(=NNC(=O)C(=O)Nc2ccc(F)cc2)CC1	-1%	3%
CCC(CC)C(=O)Nc1cc(C(=O)NCCc2ccccc2)ccc1Cl	-13%	-8%
COc1ccccc1CNC(=O)COC(=O)c1c[nH]c2ccccc12	?	-8%
Cc1c2cnn(CC(=O)N3CCN(c4ccc(F)cc4)CC3)c(=O)c2c(C)n1Cc1ccccc1F	1%	2%
CCOC(=O)c1cc2c(ccn2C)n1CC(=O)N1CCC(Cc2ccccc2)CC1	i	-4%
Cc1cc(C)n(-c2ccc(C(=O)Nc3nnc(C4CC4)s3)cc2)n1	-11%	-15%
COc1ccc(C(C(=O)NCC2CCCO2)N(C(=O)CNC(=O)c2cccs2)c2ccc(NC(C)=O)cc2)cc1OC (centres undefined)	i	5%
COc1ccc(-n2c(=O)[nH]cc(C(=O)Nc3ccc4c(c3)OCCO4)c2=O)cc1OC	i	-12%
CCOc1ccc(S(=O)(=O)Nc2ccccn2)c2ccccc12	-22%	-12%
Cc1ccc2nc(SCC(=O)c3ccc4c(c3)NC(=O)CO4)[nH]c2c1	-18%	3%
COc1cc(Nc2nc(SCc3cccc(Cl)c3)nc3ccccc23)cc(OC)c1	-9%	-12%
COc1cccc(NC(=O)COc2ccc(C)cc2)c1	.	-16%
O=S(=O)(NCc1cccnc1)c1cccs1	5%	8%
N#Cc1ccccc1S(=O)(=O)N1CCN(C(=O)C2CC(=O)N(c3ccc4c(c3)OCCO4)C2)CC1 (centres undefined)	16%	-16%
Cc1c(Cl)cccc1NC(=O)Cn1c(CCC(=O)O)ccc1-c1ccc(Cl)cc1	?	-18%
O=C(Cc1cccc2ccccc12)Nc1ccc(-c2cc3ccccc3oc2=O)cc1	.	-16%
COc1ccc(SN=C2C(C)=CC(=O)C=C2C)cc1	?	1%
CCN(CCC(=O)Nc1ccc(Br)c(C)c1)Cc1ccccc1	.	-26%
O=C(c1cccnc1)N(Cc1ccccc1)C(=O)c1cccnc1	-25%	-3%
CCOC(=O)C1(Cc2ccccc2C)CCCN(C(=O)c2ccc(C(C)=O)s2)C1 (centres undefined)	i	-11%
Nc1n[nH]c(=S)n1-c1ccc(Cl)cc1	i	-13%
CCOC(=O)c1ccc(N=Cc2c(O)c3ccccc3oc2=O)cc1	i	-12%
O=C(CN1CCN(C(=O)CCC(=O)N2CCC(c3ccccc3)=N2)CC1)Nc1ccc(F)cc1	-2%	?
O=C(c1ccc(N2CC3CC(C2)c2cccc(=O)n2C3)c([N+](=O)[O-])c1)N1CCCCC1 (centres undefined)	-9%	-2%
CC1CCN(C2(O)C(=O)Nc3ccc(Cl)cc32)CC1 (centres undefined)	i	-6%
O=C(COc1ccc(Cl)cc1)NCC(c1ccco1)S(=O)(=O)c1ccccc1 (centres undefined)	i	-1%
O=C(NCC(c1ccco1)N1CCc2ccccc2C1)C(=O)Nc1cc(F)ccc1F (centres undefined)	i	-11%
(cont.)
SMILES	VACV mCherry inh	Vaccinia Venus
COc1ccc(C(=O)Nc2nc3ccc(S(C)(=O)=O)cc3s2)cc1	-21%	-25%
CC(=O)Nc1ccc(NC(=O)CC2Sc3ccccc3NC2=O)cc1 (centres undefined)	-10%	-6%
CCOc1ccc(OCC)c(NS(=O)(=O)c2cc(Br)cc3c2N(C(C)=O)C(C)C3)c1 (centres undefined)	-15%	-4%
CCOC(=O)C1(C)CCCN(C(=O)c2snnc2C)C1 (centres undefined)	25%	0%
COc1cc(C)ccc1OCCOCCOc1ccc([N+](=O)[O-])cc1	-25%	-7%
COc1ccc(S(=O)(=O)NCCc2ccccc2)cc1OC	i	-12%
CCOC(=O)c1sc(SC)c2c1CCC/C2=N/OC	-12%	6%
CCCc1cc2c(cc1NC(=O)c1ccc(C)cc1)OCO2	.	5%
O=C(COc1ccc2ccccc2c1)N1CCNCC1	-10%	-2%
Cc1ccc(OCC(=O)N2C(C)CCCC2C)c([N+](=O)[O-])n1 (centres undefined)	-5%	2%
Cc1nnc(NC(=O)Cn2cnc3c2c(=O)n(C)c(=O)n3C)s1	-1%	0%
CCc1ccc(NC(=O)C(=O)NNC(=O)c2ccc(OC)cc2)cc1	0%	-7%
O=C(NC(=S)NCC1CCCO1)C(c1ccccc1)c1ccccc1 (centres undefined)	-9%	-11%
Cc1ccc(-c2nnc(SCC(=O)NC3CCS(=O)(=O)C3)nc2-c2ccc(C)cc2)cc1 (centres undefined)	-20%	2%
Cc1c(C#N)c(N=CN(C)C)c(C(=O)c2ccccc2)n1-c1ccccc1	.	-14%
O=C(NCc1ccc(N2CCCC2=O)cc1)NC1CCCCC1	.	-7%
S=C(NCCc1ccccc1)N1CCN(C(c2ccccc2)c2ccccc2)CC1	-10%	-4%
Nc1c(-c2ccccc2)c(CSc2nc3ccccc3[nH]2)nn1-c1cccc(Cl)c1	?	?
O=C(CSc1nc2ccccc2nc1Cc1ccccc1)N1CCN(c2ccccc2)CC1	-12%	-5%
Cc1cccc(NC(=O)CNC(=O)c2cc(S(=O)(=O)N(C)C)ccc2N2CCCC2)c1C	i	-7%
Cc1cc(NC(=O)C2CCCCC2C(=O)O)ccc1NC(=O)c1ccccc1 (centres undefined)	-14%	-16%
Cc1cccc(C(=O)Nc2ccc(C(=O)N/N=C/c3cccc(C)n3)cc2)c1	-3%	-8%
O=C(O)c1ccc(/C=C2\CCCc3c2nc2ccccc2c3C(=O)O)cc1	-1%	-3%
O=C(Nc1nc(-c2ccco2)c(-c2ccco2)s1)c1cnccn1	-6%	-17%
COc1ccccc1NS(=O)(=O)c1cccc(NC(=O)C(C)NC(=O)c2ccco2)c1 (centres undefined)	-14%	-6%
O=C(CCC(=O)OCc1ccc(C(=O)Oc2ccc(Cl)cc2)cc1)Nc1ccccc1	-12%	-14%
COc1ccc(Cn2nnnc2CN(Cc2cc3cc(C)ccc3[nH]c2=O)C2CCCC2)cc1	-5%	-24%
O=C(Cc1sc(-c2ccccc2Cl)nc1-c1ccccc1)Nc1ccc(F)cc1	.	2%
COc1ccc(OC)c(-n2c(=O)c3ccccc3c3ccccc3c2=O)c1	-10%	-19%
O=C(N1CCOCC1)N1[C@H](COCc2ccccc2)C=CS1(=O)=O	?	?
Cc1ccc(S(=O)(=O)N2CCCCC2)cc1NC(=O)c1nn(C)c(=O)c2ccccc12	-12%	1%
CC(=O)NC(CCCNC(=S)NC1CCCCC1)C(=O)O (centres undefined)	-19%	7%
O=C(Nc1ccccn1)c1ccc([N+](=O)[O-])o1	-4%	-16%
COc1cc(/C=N/N2CCOCC2)ccc1OC(=O)c1ccco1	-8%	-2%
C[C@H](CO)N1C[C@H](C)[C@@H](CN(C)C(=O)Nc2ccccc2)Oc2c(NS(=O)(=O)c3cccs3)cccc2C1=O	-20%	-6%
OCC12COC(c3ccccc3)N1C(c1ccccc1)OC2 (centres undefined)	.	-6%
CCCCOc1ccc(C(C)NC(=O)CN2C(=O)CSc3ccc(S(=O)(=O)N4CCOCC4)cc32)cc1 (centres undefined)	-21%	-21%
O=P(O)(Oc1ccccc1)c1ccccc1	-14%	-4%

Sorted by molecular weight (falling): some entries from above
SMILES	VACV mCherry inh	Vaccinia Venus
COc1ccc(/C=N\NC(=O)c2ccccc2)cc1COc1ccccc1	-22%	-23%
Cc1c(Cc2ccc3c(c2)OCO3)sc(NC(=O)C(C)(C)C)c1C#N	-16%	-22%
Cc1nnc(NC(=O)Cn2cnc3c2c(=O)n(C)c(=O)n3C)s1	-1%	0%
Cc1cccc(CNc2cc(-c3cccc(C#N)c3)ncn2)c1	12%	15%
CN1CCC(=NNC(=O)C(=O)Nc2ccc(F)cc2)CC1	-1%	3%
C[C@@]12C=CC(=O)C=C1CCC1C2CC[C@]2(C)C(=O)CCC12 (some centres undefined)	-1%	6%

High-throughput results deposited in PubChem by National Center for Advancing Translational Sciences (NCATS).

Compounds as they come; about 0.87% have a hit in one of these screens.
